# Source: PubChem BioAssay (several laboratories)
# Ecoli growth: E. coli growth inhibition, primary screen, OD600; Escherichia coli growth, 23 h; active compounds read low; 330,000 compounds, 0.21% hits; OD600 absorbance (concentration not given with the values);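 active = OD600 absorbance below the run mean of sample wells minus 3.6 SD, in any replicate, cut at about 0.56 in these data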;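 also: stock transfer was 300 nL into about 60 µL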
# LANA-H2A inh: blockers of LANA interaction with H2A/H2B – biochemical, FP readout, HTS, primary screen | Protein LANA1 (Human herpesvirus 8 type P (isolate GK18)), Q9QR71 | cell-free LANA-H2A/H2B peptide, fluorescence polarization | inhibition, % (concentration not given with the values) | 320,000 compounds, 0.6% hits; in the data active = inhibition mostly above about 10%, no sharp cut-off; inactive = mostly below about 6.7%;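 also: stock transfer was 7.5 nL into about 10 µL; 0% = median of vehicle wells and 100% = median of positive control wells; one replicate is shown; the record names a cut of 25% in any replicate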
# HNF4A DNA FP: change in binding of human HNF4A to DNA, primary screen, biochemical, fluorescence polarization, FITC-DNA | AID 1224865, 2016 | activity change, % at 10 µM | 360,000 compounds, 0.3% hits | 1 h; in the data active = activity change above about 30%, passing the limit was not always enough;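 also: controls were the assay level and a saturating level of protein; the project sought stronger binding though the title names inhibitors; some compounds called inactive have numbers as strong as hits; positive values seem to mean higher polarization but the record does not say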
# ALR inh: inhibitors of human ALR sulfhydryl oxidase, primary screen, biochemical, H2O2 detection, HRP-luminol luminescence, single point. FAD-linked sulfhydryl oxidase ALR (Homo sapiens), P55789. purified ALR, DTT oxidation. inhibition, % (concentration not given with the values). 290,000 compounds, 3.8% hits;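 active = mean and each replicate at 75% or more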;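 also: stock transfer was 7.5 nL into about 7.5 µL; 0% = neutral wells and 100% = wells with inactivated enzyme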
# Target sequence (P55789 whole entry, looked up): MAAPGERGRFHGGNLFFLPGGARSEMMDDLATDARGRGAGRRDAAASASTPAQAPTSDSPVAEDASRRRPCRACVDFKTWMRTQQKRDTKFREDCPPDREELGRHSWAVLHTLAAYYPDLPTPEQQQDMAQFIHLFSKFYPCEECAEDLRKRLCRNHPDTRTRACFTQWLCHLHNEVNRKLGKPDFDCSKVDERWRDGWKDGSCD
# FGF22 binding: binders of human FGF22 protein, primary screen, FGF22 synaptogenesis inhibitor project, biophysical, thermal shift, single point | 340,000 compounds, 1.5% hits | calls only at 9.99 µM | recombinant FGF22 thermal shift, SYPRO orange fluorescence; percent of sucrose octasulfate shift, DMSO zero | Fibroblast growth factor 22 (Homo sapiens), Q9HCT0;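 active = melting point raised past a set limit in the mean and every replicate; three in four hits are not shown here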
# Target sequence (Q9HCT0 whole entry, looked up): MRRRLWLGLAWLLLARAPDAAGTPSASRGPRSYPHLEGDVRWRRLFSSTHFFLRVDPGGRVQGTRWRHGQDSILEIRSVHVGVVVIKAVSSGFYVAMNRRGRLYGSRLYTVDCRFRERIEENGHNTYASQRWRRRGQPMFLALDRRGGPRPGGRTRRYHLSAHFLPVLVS
# Beta2AR agonist: beta2AR agonists driving receptor internalization, primary screen, cell-based, FAP fluorogen, flow cytometry; AID 504454, 2011; 340,000 compounds, 0.43% hits; Am2.2-beta2AR cells; reference of the scale not given here; response, % (concentration not given with the values); Beta-2 adrenergic receptor (Homo sapiens), P07550;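 active = response above a set limit, near 3 SD of response in nonfluorescent compounds, cut at about 42% in these data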;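 also: stock transfer was 100 nL into about 11 µL; a reference agonist was the positive control; negative values mostly stem from fluorescent compounds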
# UCH37 inh: inhibitors of human UCH37 deubiquitinase, primary screen, biochemical, Ub-AMC cleavage, fluorescence. Ubiquitin carboxyl-terminal hydrolase isozyme L5 (Homo sapiens), Q9Y5K5. purified proteasome/UCH37. inhibition, % (no concentration beside the values). 330,000 compounds, 0.33% hits;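 active = mean of two replicates above 20%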;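 also: 0% = compound-free wells with enzyme and 100% = wells lacking proteasome; stock transfer was 100 nL into about 20 µL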
# Target sequence (Q9Y5K5 whole entry, looked up): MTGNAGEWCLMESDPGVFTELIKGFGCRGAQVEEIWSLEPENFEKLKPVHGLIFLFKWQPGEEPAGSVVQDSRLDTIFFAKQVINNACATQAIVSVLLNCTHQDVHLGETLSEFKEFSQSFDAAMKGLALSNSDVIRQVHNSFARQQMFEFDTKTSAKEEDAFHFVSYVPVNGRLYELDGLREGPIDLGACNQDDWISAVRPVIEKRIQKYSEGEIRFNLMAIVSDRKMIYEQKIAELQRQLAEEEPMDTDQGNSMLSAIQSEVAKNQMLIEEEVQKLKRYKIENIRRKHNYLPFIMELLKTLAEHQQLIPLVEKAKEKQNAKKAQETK
#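 assay system = human UCH37 enzyme supplied as purified proteasome complex | amount = proteasome at 0.15 nM in the dispensed enzyme solution | schedule = 30 min compound-proteasome preincubation then 25 min substrate reaction, room temperature | measured by = fluorescence, ex 355 nm, em 460 nm | benchmarks = no-proteasome wells (full inhibition) and compound-free wells (no inhibition)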
# An asterisk follows results filed as active; i = inactive; · = not tested or not shown. Some of the compounds tested; count on the stated rates, not on these rows.
# Preview, 2 compounds:
canonical_smiles	Ecoli growth	LANA-H2A inh	HNF4A DNA FP	ALR inh	FGF22 binding	Beta2AR agonist	UCH37 inh
COc1ccc(C(=O)NCC(=O)N2CCN(c3ccc(F)cc3)CC2)cc1	0.71	5.6	-1.0	-3	i	10	1.8
CCCCNC(=O)N(O)C1N(/N=C/c2ccccc2OC)C(=S)SC1(C)C (stereo unspecified)	·	-3.4	-3.7	6	i	12	·

# The whole of this part, repeating the preview:
canonical_smiles	Ecoli growth	LANA-H2A inh	HNF4A DNA FP	ALR inh	FGF22 binding	Beta2AR agonist	UCH37 inh
COc1ccc(C(=O)NCC(=O)N2CCN(c3ccc(F)cc3)CC2)cc1	0.71	5.6	-1.0	-3	i	10	1.8
CCCCNC(=O)N(O)C1N(/N=C/c2ccccc2OC)C(=S)SC1(C)C (stereo unspecified)	·	-3.4	-3.7	6	i	12	·
Cc1cc(NC(=O)COC(=O)CCNS(=O)(=O)c2ccccc2)n(-c2ccccc2)n1	0.64	-2.4	0.8	-1	i	-1	3.3
Cc1cccc(N(C(=O)c2csnn2)C(C(=O)NC(C)(C)C)c2cccnc2)c1 (stereo unspecified)	0.64	-1.2	-0.9	-1	i	7	0.1
COc1ccc(C(CNC(=O)c2cccc(S(=O)(=O)Nc3ccccc3OC)c2)N2CCCCC2)cc1 (stereo unspecified)	0.7	·	1.7	·	i	10	3.9
COc1ccc(-c2oc3ncn4nc(Cc5ccccc5)nc4c3c2-c2ccc(OC)cc2)cc1	0.79	1.2	3.3	-38	·	-6	-484
CC1=NN(c2nc3ccccc3s2)C(O)(C(F)(F)F)C1 (stereo unspecified)	0.63	2.4	-1.6	40	i	11	0.1
COc1cc(OC)c(C(=O)NC23CC4CC(CC(C4)C2)C3)cc1OC	0.66	-1.2	-0.5	·	i	2	0.2
CCC(c1nnnn1Cc1cccs1)N1CCN(c2nc3ccccc3s2)CC1 (stereo unspecified)	0.74	-29	2.9	-23	·	-1	0.5
COc1ccc(/C=N/Nc2ccc(C(=O)O)cc2)cc1Br	·	3.5	1.3	99*	i	-3	·
CCc1ccc(N2CC(C(=O)N3CCCCCC3)CC2=O)cc1 (stereo unspecified)	·	-2.9	1.8	-1	i	-3	·
COc1cccc(C(=O)NCc2ccc(-c3nc4ccccc4s3)cc2)c1	0.78	0.9	5.7	-7	·	-13	-0.8
CC(=O)Oc1ccc(OC(C)=O)c(S(=O)(=O)c2ccc(C)c(C)c2)c1	0.67	2.2	-0.2	·	i	2	1.5
CNc1ccc(/C=C2\COc3ccccc3C2=O)cc1[N+](=O)[O-]	0.8	-4.9	2.4	5	·	4	2.3
c1ccc2c(c1)CCN(Cc1nnnn1Cc1ccc3c(c1)OCO3)C2	0.76	1.0	-0.8	1	·	-6	2.6
COc1ccc(OC2OC3COC(C)(C)OC3C(O)C2NC(C)=O)cc1 (stereo unspecified)	0.69	5.7	2.4	-17	·	-9	1.7
O=C(c1cccc(Oc2c(Cl)cccc2[N+](=O)[O-])c1)N1CCCCC1	0.67	5.6	-1.3	-3	·	-7	1.8
COc1ccc(Cl)cc1N1C(=O)/C(=C/c2sccc2C)N=C1SCC(=O)NC1CC1	0.71	·	3.4	·	·	·	5.5
CC(C)c1ccc(NC(=S)NC2CCN(Cc3ccccc3)CC2)cc1	0.67	-2.0	-4.0	-8	·	-1	-0.7
CC1CCCC/C1=N\NS(=O)(=O)c1ccc(Br)cc1 (stereo unspecified)	·	-5.8	1.4	8	·	-9	·
COc1ccc(CNC(=O)CSc2nnnn2-c2ccc(O)cc2)cc1	0.68	-1.4	-1.0	-23	·	2	1.8
COc1cc(/C=N/NC(=O)c2cccc(N3CCCC3=O)c2)ccc1O	·	1.6	0.8	100*	i	-1	·
Cc1nn(CC(=O)N(C)C2CCS(=O)(=O)C2)c(C)c1[N+](=O)[O-] (stereo unspecified)	0.69	1.8	0.7	-2	i	15	3.0
O=S1(=O)[C@H]2C[C@@H]3C=C[C@@]2(CN1Cc1cccc(C(F)(F)F)c1)O3	0.73	-2.1	-6.0	7	i	-3	1.5
COc1ccc(/C=N/NC(=O)c2cccc(OC(F)(F)C(F)F)c2)cc1O	·	2.1	-1.3	96*	i	5	·
NNc1ncnc2scc(-c3ccc(Cl)cc3)c12	0.69	-1.5	0.8	0	i	-14	-22
CS(=O)(=O)N1CCC(CO)(Cc2ccccc2C(F)(F)F)CC1	0.63	-4.8	-2.1	-3	i	5	1.6
Nc1cccc2c1C(=O)N(c1ccccc1)C2=O	·	2.6	-15	12	i	-1	·
CCc1ccc(OCc2cccc(C(=O)N/N=C\c3cnn(C)c3C)c2)cc1	·	·	-1.3	·	i	6	·
CC1(C(=O)NC23CC4CC(CC(C4)C2)C3)CC1(Cl)Cl (stereo unspecified)	0.69	6.1	3.3	-5	·	0	2.1

# Some values from the results shown:
# `CC1(C(=O)NC23CC4CC(CC(C4)C2)C3)CC1(Cl)Cl` (stereo unspecified) in Ecoli growth = 0.69
# `O=S1(=O)[C@H]2C[C@@H]3C=C[C@@]2(CN1Cc1cccc(C(F)(F)F)c1)O3` in ALR inh = 7

# (further entries)
canonical_smiles	Ecoli growth	LANA-H2A inh	HNF4A DNA FP	ALR inh	FGF22 binding	Beta2AR agonist	UCH37 inh
O=C(Cn1nc(-c2ccccc2)ccc1=O)NCC1COCCO1 (stereo unspecified)	0.67	-1.9	-4.4	-1	·	-1	-0.1
Cc1nc(N2CCN(C)CC2)c2sc(=S)n(-c3ccccc3)c2n1	0.7	3.9	1.0	-20	i	-1	15
CC(c1nnc(SCC(=O)N(C)C2CCS(=O)(=O)C2)n1-c1ccccc1)N(C)C (stereo unspecified)	0.71	0.7	2.5	1	i	1	-0.2
C/C(=N\NC(N)=S)C1=CCC2C3CC[C@H]4CC(O)CC[C@]4(C)C3CC[C@]12C (stereo partly specified)	·	-3.2	-2.4	·	i	15	·
Cc1nn(-c2ccccc2)c(-c2ccccc2[N+](=O)[O-])c1C(=O)O	0.66	-2.6	-0.4	-6	i	-6	3.2
CC(C)(C)NC(=O)NC(=O)COC(=O)c1cc[n+]([O-])cc1	0.65	-6.4	-1.2	4	i	-9	2.9
CC(CCc1ccccc1)NCC#N (stereo unspecified)	0.67	8.3	-3.6	-3	·	-6	0.3
COc1ccc(C(=O)NNC(=O)C23CC4CC(CC(C4)C2)C3)cc1OC	0.67	2.5	-1.1	-3	i	-4	0.8
O=C(CSc1nnc(NCc2ccccc2)s1)N1CCOCC1	0.62	1.6	2.1	-1	·	-9	1.1
Cc1cc(Oc2cc(N)cc([N+](=O)[O-])c2)ccc1Cl	0.68	-2.3	-3.8	0	·	3	1.5
COc1ccc(Cl)cc1C(=O)NNC(=S)NC(=O)c1cc(-c2ccc(Cl)cc2)nc2ccccc12	0.75	3.7	1.2	-5	·	-3	5.2
NC(=S)C1COc2ccccc2O1 (stereo unspecified)	·	-6.8	1.5	-4	i	-1	·
COc1ccccc1NC(=S)N(Cc1ccc(Cl)cc1)CC1CCC(C(=O)O)CC1 (stereo unspecified)	0.69	4.6	2.0	-10	i	2	2.0
CCOC(=O)[C@@H]1[C@H]2COc3ccc(Br)cc3[C@@H]2N2C(=O)N(c3ccc(Br)cc3)C(=O)[C@]12C	·	-0.8	6.8	-27	i	-9	1.5
CNc1cc(-n2nc(C)cc2-c2ccccc2)ncn1	0.74	1.0	5.4	-4	·	2	0.5
Cc1ccc2oc(C(=O)Nc3cc(C)on3)c(C)c2c1	0.67	3.0	2.6	-1	i	-9	-2.9
NC(=O)C1CCN(C(=O)COc2ccc3c4c(c(=O)oc3c2)CCCC4)CC1	0.78	-8.5	2.4	-6	i	-14	-64
Fc1ccccc1OCCSc1nnnn1-c1ccccc1	0.66	2.8	-0.4	-10	·	-6	4.3
Cc1c(-n2c(SCC(=O)N(C)C3CCS(=O)(=O)C3)nc3ccccc3c2=O)c(=O)n(-c2ccccc2)n1C (stereo unspecified)	0.75	-4.6	-0.9	-6	i	0	0.6
Cc1ccc(C)c(NC(=S)N(CCN(C)C)C(C)c2ccccn2)c1 (stereo unspecified)	0.69	6.9	-0.8	-3	i	-6	1.3
COc1ccc(CNC(=O)C2CCNCC2)cc1	0.71	0.6	-0.7	-3	·	10	1.2
C=CCNC(=S)NNC(=O)CSc1nc2ccccc2s1	0.62	6.1	-0.2	36	i	2	3.1
Cc1ccc(C)c(S(=O)(=O)N2CCN(C(=O)/C=C/c3ccco3)CC2)c1	0.68	1.9	0.0	·	i	-4	4.0
CCc1c(OC(C)=O)c2ccccc2n(C)c1=O	0.66	5.7	-2.2	4	i	1	4.1
CCOC(=O)c1c(OCCO)noc1N	0.68	-0.2	1.7	-8	·	-8	3.2
CCOc1ccccc1NC(=S)NC(=O)C1CCCCC1	0.71	3.5	1.4	0	i	4	-0.3
O=C(O)c1ccc2c(=O)n3c(nc2c1)/C(=C/c1ccccc1C(F)(F)F)CCCC3	0.69	-4.4	-3.8	5	·	3	-1.8
C=CCN1C=C2C(=O)C(C)(OC(=O)CCC(=O)OC)C(=O)C(Br)=C2C=C1c1ccc(OC)cc1 (stereo unspecified)	·	1.8	-5.9	-12	·	5	2.5
Cc1ccccc1NC(=O)CC1SC(=Nc2ccc(O)cc2)NC1=O (stereo unspecified)	0.71	3.0	-0.4	5	i	5	4.2
O=C(CCNC(=O)Cn1ccc2ccccc2c1=O)NCC1CCCC1c1ccccc1 (stereo unspecified)	0.66	2.5	-2.2	-11	·	-9	-6.8
Cc1oc(-c2ccccc2Cl)nc1CSc1nc2c(c(=O)[nH]1)CCC2	0.74	-7.4	-2.3	49	i	-11	5.3
CCN1CCN(C(=S)c2ccc(O)cc2)CC1	0.64	5.8	0.2	·	i	4	-0.8
COc1ccccc1C(=O)Nc1ccc2c(c1)nc(CCNC(=O)c1ccccc1)n2C	·	3.9	1.1	2	i	-6	·
Cc1cccc(-n2c(Cc3cc(=O)[nH]c(=O)[nH]3)nnc2SCC(=O)NCc2ccco2)c1	0.7	3.5	-0.7	7	·	-3	5.2
CC(=O)C(Sc1nnnn1-c1ccc(O)cc1)c1ccccc1 (stereo unspecified)	0.68	0.7	0.1	17	i	-7	-0.4
N#Cc1c(SCC(N)=O)nc(-c2ccccc2)c2c1CCCC2	0.73	0.7	-1.0	4	·	2	-42
COc1cc(OC)c(N2CC(C(=O)NCCC3=CCCCC3)CC2=O)cc1Cl (stereo unspecified)	0.71	2.7	0.3	-4	i	0	-0.8
CCN(CC)C(=O)CSc1nnc(-c2ccccc2)c(-c2ccccc2)n1	0.67	-5.9	0.7	9	·	-18	8.6
Cc1c(CCOC(=O)C23CC4CC(CC(C)(C4)C2)C3)sc[n+]1Cc1ccccc1	0.6	5.3	-2.0	-15	·	0	3.7
COc1ccc(OC)c(NC(=O)C(CC(=O)O)NCc2ccco2)c1 (stereo unspecified)	0.67	-1.8	-1.5	-3	·	0	0.5
CCCNC(=O)C1CCC(CNS(=O)(=O)c2cccc3nsnc23)CC1 (stereo unspecified)	0.62	·	1.9	22	i	-1	0.8
CCN(CC)CCN(Cc1cc2cc3c(cc2[nH]c1=O)OCCO3)C(=S)NCC(C)C	0.65	3.2	4.5	·	i	10	-177
CC(C)CNC(=S)N1CCN(C)CC1	0.69	-1.8	0.4	49	·	2	1.9
CCOC(=O)Cc1csc(NC(=O)CCc2ccccc2)n1	0.67	-3.3	1.1	-21	i	4	0.3
